Screening data from PubChem.
Choline anaer gr: growth inhibitors of anaerobic choline-fed gram-negatives, minimal medium, absorbance; calls only; Gram-negative bacterium anaerobic choline minimal medium; active compounds read low; many inactives read as strong as hits in the columns shown; AID 1963822, 2024; hit rate 0.2% among 55,000;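 active = growth z-score on choline under -2 at 7 or 20 h with little or no fall on glycerol, limits in tiers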;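 also: stock transfer was 300 nL into about 50 µL; the organism is E. coli; final concentration not given here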
Choline anaer gr early: further read-out of Choline anaer gr, marked with its call; z-score; measured here: choline growth z-score, timepoint 1;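 score of optical density at 7 h as mean of two plates; lower means less growth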
Numbers without * were called inactive; i = inactive; & = joins results of further samples. An excerpt (hit frequency here may not be typical).

SMILES | Choline anaer gr | Choline anaer gr early
COc1cc(NS(=O)(=O)c2ccc3c(c2)-c2oncc2CO3)cc(OC)c1 | i | -0.89
Cc1c(N2CCN(C(=O)c3[nH]nc4c3CCc3ccccc3-4)CC2)c(=O)n(C)c(=O)n1C | i | -0.81
COc1ccc(-c2nc3c4cnn(-c5cccc(C)c5)c4ncn3n2)cc1 | i | -1.29
CCOCCOC(=O)c1ccc2c(c1)N(Cc1cccc(Cl)c1)C(=O)c1ccccc1S2 | i | 1.53
CCc1nnc(NC(=O)CSc2nnc(Cc3c(C)nc4cc(C)ccn4c3=O)n2C)s1 | i | -0.78
O=c1c2ccccc2nc2c(-c3nc(-c4ccc5c(c4)OCO5)no3)cccn12 | i | -0.42
COc1cc(OC)c(NC(=O)NCCc2c(C)nn(C)c2C)cc1Cl | i | -0.6
COc1ccccc1NC(=O)NC1CCN(c2cc(C)nc3ncnn23)CC1 | i | 1.18
O=c1cc(CN2CCOCC2)nc2nc(-c3ccc(F)cc3)[nH]n12 | i | 0.75
Cc1cc2c(cc1S(=O)(=O)N1CCCC(C(=O)N3CCC(N4CCCCC4)CC3)C1)OC(C)C(=O)N2 (configuration not stated) | i | -0.42

The list goes on, starting with the last 3 of the part before.
SMILES | Choline anaer gr | Choline anaer gr early
COc1ccccc1NC(=O)NC1CCN(c2cc(C)nc3ncnn23)CC1 | i | 1.18
O=c1cc(CN2CCOCC2)nc2nc(-c3ccc(F)cc3)[nH]n12 | i | 0.75
Cc1cc2c(cc1S(=O)(=O)N1CCCC(C(=O)N3CCC(N4CCCCC4)CC3)C1)OC(C)C(=O)N2 (configuration not stated) | i | -0.42
CCn1cnc(S(=O)(=O)N2CCCC(C(=O)NC3CCCCC3)C2)c1 (configuration not stated) | i | 0.28
CN(C)C(=O)c1ccc2c(c1)N(CC(=O)NCc1ccc(Cl)cc1)C(=O)CS2 | i | 0.47
CCc1nnc(-c2coc(S(=O)(=O)N3CCN(C(C)C)CC3)c2)o1 | i | -2.36
C=Cc1ccc(Cn2cccc(S(=O)(=O)N3CCCC3)c2=O)cc1 | i | -1.02
NC1=NC(=O)C(C2(O)C(=O)Nc3ccccc32)S1 (configuration not stated) | i | -1.95
O=S(=O)(Nc1cccc(N2CCCS2(=O)=O)c1)c1cc(F)ccc1F | i | -0.07
Clc1ccc(-c2nnc(C(c3ccccc3)N3CCN(c4ccccc4)CC3)o2)cc1 (configuration not stated) | i | 1.99
Cc1oc(-c2ccccc2)nc1CSc1nc(-c2ccncc2)cc(=O)[nH]1 | i | -0.88
Cn1c(=O)[nH]c2c(C(=O)N3CCC4(CC3)OCCO4)snc2c1=O | i | 1.01
O=S(=O)(Nc1cnn(-c2ncc(N3CCCC3)cn2)c1)c1ccc2c(c1)CCCC2 | i | -1.47
COCCCNCC1C(Oc2ccc(Cl)cc2)C(=O)N1c1ccccc1C (configuration not stated) | i | -0.62
Cc1cc(C)cc(-n2nnc(C(=O)OCc3cc(C)ccc3C)c2C)c1 | i | 2.2
COc1cc2c(cc1OC)n(CC(=O)Nc1ccc(C)cc1C)c(=O)n1nc(-c3ccccc3)nc21 | i | 0.04
C/C=C/c1ccc(OC)cc1 | i | -1.38
COc1ccc(NS(=O)(=O)c2ccc3c(c2)NC(=O)CCS3)cc1OC | i | -1.45
CCOC(=O)C1CCN(c2cc(C(=O)Nc3ccccc3F)ccn2)CC1 | i | 0.7
CS(=O)(=O)c1cccc(CNc2nc(Nc3ccc4c(c3)CCC(=O)N4)ncc2C(F)(F)F)c1 | i | 0.25&0.96
CCOc1ccc(C(=O)NCCOc2ccc(-c3ccccc3)nn2)cc1 | i | -1.12
COc1ccc(NC(=O)c2nnn(Cc3nc(-c4ccccc4)oc3C)c2C)cc1 | i | 0.32
O=C1NC(=O)C(c2ccc(Cl)cc2)N1 (configuration not stated) | i | 0.26
O=S(=O)(c1cc(-c2noc(C3CCCC3)n2)cs1)N1CCOCC1 | i | -0.07
COc1ccc(NS(=O)(=O)c2ccc3c(c2)c(=O)n(CC(=O)N2CCCC2)c(=O)n3C)cc1 | i | 0.02
O=C(CSc1nnc(-c2cccnc2)o1)NC1CCCC1 | i | -0.78
CCNCc1ccc(-c2ccccc2)o1 | i | -0.97
CC(C)(C)C(=O)N1CCN(Cc2noc(-c3ccc(F)cc3)n2)CC1 | i | 0.46
CCOc1ccc(-c2noc(-c3cc(C4CC4)[nH]n3)n2)cc1 | i | 1.27
Cn1nnc(NCc2ccc(-c3ccccc3Cl)o2)n1 | i | -1.48
C=C1CC[C@H](O)C/C1=C/C=C1\CCC[C@]2(C)[C@@H]([C@H](C)CC[C@@H](O)C(C)(C)O)CC[C@@H]12 | i | 0.47
O=c1[nH]c(-c2cc(Cl)ccc2O)nc2c1Cc1cc(F)ccc1O2 | i | -1.05
Cc1ccc2nc(Nc3nc(-c4ccc(F)cc4)cc(=O)[nH]3)nc(C)c2c1 | i | 1.55

Filtered by structure, the compounds so far containing an aryl thioether with sulfur outside any ring (3)
SMILES | Choline anaer gr | Choline anaer gr early
CCc1nnc(NC(=O)CSc2nnc(Cc3c(C)nc4cc(C)ccn4c3=O)n2C)s1 | i | -0.78
Cc1oc(-c2ccccc2)nc1CSc1nc(-c2ccncc2)cc(=O)[nH]1 | i | -0.88
O=C(CSc1nnc(-c2cccnc2)o1)NC1CCCC1 | i | -0.78

Next records.
SMILES | Choline anaer gr | Choline anaer gr early
Clc1ccc(-c2noc(-c3cccnc3NCc3cccnc3)n2)cc1 | i | -1.19
COc1ccc2c(c1)cc(C(=O)Nc1ccc(N3CCOCC3)cc1)n2C | i | 1.05
O=C(Nc1ccc(-c2noc(C3CCC3)n2)cc1)Nc1cccnc1 | i | 1.06
CC1(CNC(=O)c2cc(-c3cccs3)[nH]n2)CCOCC1 | i | -0.68
O=C(Nc1ccccc1)Nc1cccc(-c2nnc(-c3ccccc3)o2)c1 | i | 0.98
COc1ccc(-c2noc(-c3cccc(OCC(=O)N(C)C)c3)n2)cc1 | i | -0.03
Cc1ccc(S(=O)(=O)c2ccc(C(=O)N3CCN(Cc4ccc5c(c4)OCO5)CC3)cn2)cc1C | i | 1.15
CCc1ccc(OC(C)C(=O)NCc2csc(-c3ccccc3)n2)cc1 (configuration not stated) | i | 0.65
COc1ccc(C(=O)CN2C(=O)COc3ccccc3C2=O)cc1OC | i | -0.47
CN(C)S(=O)(=O)c1ccc2c(c1)cc(C(=O)NCCc1c[nH]c3ccccc13)n2C | i | 0.65

Single records (already shown). Values in the order: Choline anaer gr | Choline anaer gr early
`CCn1cnc(S(=O)(=O)N2CCCC(C(=O)NC3CCCCC3)C2)c1` (configuration not stated) as listed: i | 0.28
`CCNCc1ccc(-c2ccccc2)o1` as listed: i | -0.97
`COc1cc(OC)c(NC(=O)NCCc2c(C)nn(C)c2C)cc1Cl` as listed: i | -0.6

Further results:
SMILES | Choline anaer gr | Choline anaer gr early
CCOC(=O)c1cc(C)nc2c1c(=O)n(Cc1nc(-c3ccc(OCC)cc3)oc1C)c(=O)n2C | i | 0.33
COC(=O)c1ccc(N2CCN(C)CC2)c(NC(=O)COc2ccc(Cl)cc2)c1 | i | 0.77
COc1ccc(NC(=O)c2ccc3nn(CC(=O)Nc4ccc(C(C)C)cc4)c(=O)n3c2)cc1 | i | -1.02
CCc1nc2nc(C)c(Cc3ccccc3C)c(=O)n2[nH]1 | i | -0.22
O=C(c1ccc(F)c(Cl)c1)N1CCC(c2nc(-c3ccc(F)cc3)no2)CC1 | i | 0.64
O=C(NCC(c1ccccc1)c1c[nH]c2ccccc12)c1ccc(F)cc1 (configuration not stated) | i | -0.35
CCOC(=O)c1[nH]c(C)c(CN(CC2CCCO2)C(=O)c2ccc(OCC)cc2)c1C (configuration not stated) | i | -0.46
Cc1ccc(Cl)cc1N1CCN(C(=O)CSCc2nc(-c3ccc(Cl)cc3)oc2C)CC1 | i | -1.5
CCOc1ccccc1NC(=O)Nc1ccc(-c2cc3cc(Cl)ccc3[nH]2)cc1 | i | -0.35
CCCc1cc(C2CCCN2C(=O)NCCC(C)C)no1 (configuration not stated) | i | -0.09
Cc1ccc(C)c(N2CCN(C(=O)c3cc(C(F)(F)F)n(C)n3)CC2)c1 | i | -0.3
O=C(Nc1ccc2c(c1)OCO2)N1CCCC1c1ccc(F)cc1 (configuration not stated) | i | -0.19
Cc1ccnc(NC(=O)c2cc3sc4ccccc4c3s2)c1 | i | -0.35
CCOc1ccc(N2CC(NC(=O)C3CC3)CC2=O)cc1 (configuration not stated) | i | -2.04
CC(C)c1cc(C2CCCN2Cc2ccc(F)c(F)c2)no1 (configuration not stated) | i | 0.09
COCCCNC(=O)CN1c2ccccc2NC2=C(C(=O)CCC2)C1c1cccs1 (configuration not stated) | i | -0.24
Cc1ccc(C)c(N2CCN(c3ncc(NC(=O)c4ccc(F)cc4)cc3C(=O)O)CC2)c1 | i | -0.84
O=C(CN1CCCN(Cc2ccccc2F)S1(=O)=O)N1CCCCC1 | i | 0.22
CCn1ncc(Cl)c1C(=O)N1CCCC1c1cc(C(C)C)no1 (configuration not stated) | i | 0.78
CC(=O)N1c2cc(S(=O)(=O)N3CCN(c4ccccn4)CC3)c(Br)cc2CC1C (configuration not stated) | i | -0.82
Cc1ccc2[nH]cc(C(O)CN3CCN(c4ccc(F)cc4)CC3)c2c1 (configuration not stated) | i | -0.67
Cc1nn(-c2ccc(F)cc2)c2c1c(=O)c(C(=O)Nc1cccc(Cl)c1)cn2C | i | -0.55
O=C(O)C1CC(=O)N(CCN2CCOCC2)C1 (configuration not stated) | i | 0.23
Cc1nn(-c2ccccc2)c(C)c1CCc1nn2c(-c3cnccn3)nnc2s1 | i | 0.61
C=CCn1c(=O)c(C(=O)Nc2cc(C)cc(C)c2)c(O)c2ccccc21 | i | -0.29
Cc1sc(NC(=O)c2cccs2)c(CN2CCN(C)CC2)c1C | i | 0.15
O=c1ccc(-c2ccccc2)nn1CCc1nc(-c2ccncc2)no1 | i | -0.8
O=C(Nc1nccs1)c1ccccc1-c1nc(-c2ccccc2)no1 | i | 0.52
Cc1ccc(Nc2ncnc3c2nc2n3CCCC2)cc1F | i | -0.77
COc1ccc(C(=O)N2CCC(c3noc(-c4ccc(S(=O)(=O)N5CCCC5)cc4)n3)CC2)cc1 | i | 0.42

Some of these compounds in order of their number in Choline anaer gr early, descending.
SMILES,Choline anaer gr early
Cc1sc(NC(=O)c2cccs2)c(CN2CCN(C)CC2)c1C,0.15
Cc1ccc2[nH]cc(C(O)CN3CCN(c4ccc(F)cc4)CC3)c2c1 (configuration not stated),-0.67
O=c1ccc(-c2ccccc2)nn1CCc1nc(-c2ccncc2)no1,-0.8

Going on with the list:
SMILES | Choline anaer gr | Choline anaer gr early
O=C(CN1C(=O)c2ccccc2S1(=O)=O)Nc1ccccc1C(=O)c1ccccc1 | i | -1.09
Cc1nc2sccn2c(=O)c1CCN1CCC(=C(c2ccccc2)c2ccc(F)cc2)CC1 | i | 0.3
CCOc1ccc(C2CC(=O)Nc3nc(N)[nH]c(=O)c32)cc1 (configuration not stated) | i | 0.27
COCCNC(=O)CCCn1c(=O)c2cc(OC)c(OC)cc2n(CC(=O)c2ccccc2)c1=O | i | 1.16
Cc1ccc(Cn2c3ccc(F)cc3c3ncn(Cc4nc(C5CC5)no4)c(=O)c32)cc1 | i | 1.38
CCn1c2c(c(SCc3ccc(Cl)cc3)nc1=O)CCC2 | i | -0.57
COc1ccc(-c2c(C)nn3c(NCCc4ccc(Cl)cc4)cc(C)nc23)cc1OC | i | 1.41
COCc1cc(C)nc2sc3c(c12)NCN(c1ccc(Cl)cc1)C3=O | i | 1.2
CNC(=O)c1nc(N2CCCCC2)sc1N | i | -0.1
Cc1nc2nc3c(c(Nc4ccc(Cl)cc4)n2n1)CCCC3 | i | 0.61
O=C(c1cnn2c(C(F)(F)F)cc(-c3ccccc3)nc12)N1CCN(c2ccccn2)CC1 | i | 0.21
O=C(COc1ccccc1-c1nnc(-c2ccccc2)o1)N1CCN(c2ccccn2)CC1 | i | -0.66
COc1ccc(C(=O)Nc2nc(CC(=O)NC3CCCCC3)cs2)cc1 | i | -0.71
O=c1[nH]c(SCc2ccc(Br)cc2)nc2c1cnn2-c1ccc(F)cc1 | i | 0.23
COc1ccc(CC(=O)N2CCN(c3c(C)n(C)c(=O)n(C)c3=O)CC2)cc1 | i | 0.46
O=C(O)CCc1ccc(-c2ccccc2)n1-c1cccc(O)c1 | i | -0.08
CCn1cc(S(=O)(=O)N2CCCn3nc(-c4cccs4)cc3C2)cn1 | i | 0.57
CCCCOc1ccc(C2CC(=O)Nc3c2c(C)nn3-c2ccc3nnc(C)n3n2)cc1OCC (configuration not stated) | i | -0.6
CC1CCN(C(=O)c2cc3c(s2)-c2ccccc2OC3)CC1 | i | -1.81
CC(C)OCCCNc1ncnc2c1CCC2 | i | -1.84
Cc1nn(C)c2nc(OCC(=O)NCC3CCCO3)cc(C(F)(F)F)c12 (configuration not stated) | i | 0.21
CCOC(=O)c1c(C)n(-c2ccc(C)cc2)c2ccc(OCC(O)CN3CCOCC3)cc12 (configuration not stated) | i | 0.5
O=C(C1=CN(c2ccccc2)c2ccccc2S1(=O)=O)N1CCCC1 | i | -0.03
Cc1ccc(CN2CCN(C3CCN(S(=O)(=O)c4cccc(Cl)c4)CC3)C2=O)cc1 | i | 1.2
C=CCSc1c(CCC)cnc2c1c(=O)n(C)c(=O)n2C | i | -0.91
O=C(Nc1cccc(Br)c1)c1cncc(-c2ccc(F)cc2)c1 | i | 0.57
CCOc1ccc(OCC)c(NC(=O)c2nn(C)c(C(F)(F)F)c2Cl)c1 | i | -1.09
CCOCCCNC(=O)c1ccc(-c2nccc(Oc3cccc(OC)c3)n2)cc1 | i | -0.25
O=C(Cc1csc(NC(=O)c2ccccc2)n1)NC1CCCCC1 | i | -1.45
CCC1(C)Cc2ccccc2-c2[nH]c(=O)[nH]c(=O)c21 (configuration not stated) | i | 0.81
